# miR-21 FLuc – raises the signal of a miR-21 reporter. Potency, µM (highest dose often 38.3 µM), for the others: at the highest dose reporter change, positive = more light. 340,000 tested, under 10 active. HeLa miR-21 FLuc reporter, luciferase, 48 h. AID 2288; active = well fitted rising curve with a large enough effect; inconclusive = small, poorly fitted or top-dose-only effect; inactive = no such curve, though single readings can be large or run the other way;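 further: % of control where 0% means no effect; miR-21 action dims this reporter so a rising signal means less miR-21 action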
#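 HeLa cells endogenously expressing miR-21, stably carrying CMV-driven firefly luciferase with a downstream miR-21 binding site, 2000 cells/well. Titrations up to approximately 40 uM, 48 hours; luciferase luminescence read.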
# An asterisk follows results filed as active; ? = inconclusive. Some of the compounds tested; the hit share may differ from the screen's.
SMILES	miR-21 FLuc
CCCCOc1ccc(S(=O)(=O)Nc2ccc(-c3ccc(N4CCC(C)CC4)nn3)cc2)cc1	-22.0%
CCC12CN3CC(C)(CN(C1)C3c1c(C)[nH]c3ccccc13)C2=O (stereo not drawn)	10.7%
Cc1ccc(NC(=O)CSc2nc3c(oc4ccccc43)c(=O)n2Cc2ccco2)cc1F	1.2%
Cc1ccccc1C(=O)Nc1sc2c(c1C(=O)N1CCC(C)CC1)CCCC2	17.1%
CCOc1ccc(CN(C(=O)c2cc(=O)c3cc(Cl)ccc3o2)C2CCS(=O)(=O)C2)cc1 (stereo not drawn)	-11.4%
CC(C)(C)OC(=O)N1CCC(c2c(C(=O)NC3CCCCC3)cnn2-c2cccc(F)c2)CC1	2.3%
Cc1cc(C)cc(OCC(=O)N2CCC(c3nc4ccccc4o3)CC2)c1	-4.1%
O=C(O)c1cccc(-n2cnc3cccnc32)c1	-4.9%
CCOC(=O)c1c(C)oc2nc(C)nc(NCCc3ccc(C)cc3)c12	-0.5%
CCc1ccc(CNC(=O)c2cc3cc4ccc(OC)cc4nc3o2)cc1	-1.3%
Cc1ccccc1NC(=O)c1c(NC(=O)Cc2ccccc2)sc2c1CCC2	-2.4%
COc1ccc(-n2nnnc2C2CCN(S(=O)(=O)c3ccc(F)cc3Cl)CC2)cc1	?
O=P(O)(O)CP(=O)(O)O	0.2%
COC(=O)c1cc(NC(=O)c2cnc(SC)nc2-c2ccccc2)cc(C(=O)OC)c1	5.0%
Cc1cccc(OCCSc2nc3ccc(NC(=O)COc4ccccc4C)cc3s2)c1	2.7%
Cc1ccc(OCCSc2nc(C)c(Cc3ccccc3)c(=O)[nH]2)cc1	-0.3%
Cc1ccc(Cl)cc1-n1c(CCC(=O)O)ccc1-c1cccs1	1.4%
Cc1ccc2ccc3cc(C(=O)N4CCN(c5ccccc5F)CC4)nc3c2[nH]1	-10.0%
CCCc1cc(C(=O)Nc2c(C)nn(Cc3c(Cl)cccc3Cl)c2C)no1	9.8%
Cc1cc(C)cc(N2C(=O)CSC23C(=O)N(CC(=O)NC2CCCCC2)c2ccccc23)c1 (stereo not drawn)	-5.6%
COCCn1ccc2c(OCC(=O)Nc3cccc(C(F)(F)F)c3)cccc2c1=O	10.1%
CCOC(=O)c1cccc(NC(=O)c2ccc3c(c2)nnn3CC)c1	-5.1%
Cc1ccccc1NC(=O)C(=O)NCC1(c2ccccc2)CCCC1	3.9%
COc1ccccc1NC(=O)C(=O)NNC(=O)COc1ccc2ccccc2c1	-4.3%
CC(=O)Nc1ccc(NC(=O)c2ncoc2-c2ccco2)cc1	-31.8%
COc1ccc2c(C)c(CCC(=O)NCCc3ccccc3OC)c(=O)oc2c1	-3.6%
COc1ccc(C)cc1Nc1nc2cc(Cl)c(Cl)cc2nc1-n1nc(C)cc1C	2.2%
Cc1ccc(NS(=O)(=O)c2cnc(N)nc2)c(C)c1	-2.9%
CCOc1cc(S(=O)(=O)n2ccnc2C(C)C)ccc1Cl	20.1%
CCC(C)NC(=O)c1ccccc1NC(=O)CN1C(=O)c2cccc3cccc1c23 (stereo not drawn)	-13.4%
Cc1cc(C)c(Cn2c3ccccc3c3cnn(CC(=O)NCC(C)c4ccccc4)c(=O)c32)c(C)c1 (stereo not drawn)	2.0%
COc1cccc(NC(=O)C2CCCN2S(=O)(=O)c2ccc3nc(-c4ccccc4)[nH]c3c2)c1 (stereo not drawn)	-7.0%

# Rewritten as labelled records: entries from further up.
COCCn1ccc2c(OCC(=O)Nc3cccc(C(F)(F)F)c3)cccc2c1=O
  miR-21 FLuc: 10.1%
CCOC(=O)c1cccc(NC(=O)c2ccc3c(c2)nnn3CC)c1
  miR-21 FLuc: -5.1%
Cc1ccccc1NC(=O)C(=O)NCC1(c2ccccc2)CCCC1
  miR-21 FLuc: 3.9%
COc1ccccc1NC(=O)C(=O)NNC(=O)COc1ccc2ccccc2c1
  miR-21 FLuc: -4.3%

# Further entries:
SMILES	miR-21 FLuc
CCOc1ccc(C(=O)Nc2cccc(C(=O)OCc3cc(=O)n4cc(C)sc4n3)c2)cc1	-33.6%
CCOc1ccc2nc(N3CCN(C(=O)CS(=O)(=O)c4ccc(F)cc4)CC3)sc2c1	12.5%
Cc1nn(C(=O)c2cccc([N+](=O)[O-])c2C)c(C)c1S(=O)(=O)N1CCCCCC1	-3.0%
O=C(CSc1nc2c([nH]c3ccccc32)c(=O)n1-c1ccc(Cl)cc1)c1ccccc1	-0.4%
CC1CCc2c(sc(NC(=O)Cc3ccccc3)c2C(=O)Nc2ccc(Cl)cc2)C1 (stereo not drawn)	-1.8%
COc1ccc(NC(=O)CN2CCCN(Cc3ccc(Cl)cc3)S2(=O)=O)cc1Cl	14.0%
Cc1ccc2c(c1)c1c(c(=O)n(Cc3ccccc3)c(=O)n1Cc1cccc(F)c1)n2C	1.6%
Cc1cc(C)c(/C=C/c2onc(C)c2S(=O)(=O)N2CCC(C(=O)NCc3ccco3)CC2)c(C)c1	23.3%
COc1ccc(N2CCN(C(=O)Cn3cnc4sc(C)c(S(=O)(=O)N5CCC(C)CC5)c4c3=O)CC2)cc1	22.1%
CC(=O)c1ccc(NC(=O)C(C)n2nc(-c3ccccc3)ccc2=O)cc1 (stereo not drawn)	0.6%
COC(=O)c1sc(-c2ccccc2)cc1NC(=O)Nc1ccccc1Cl	24.4%
CCOc1ccccc1CNC(=O)CN1C(=O)CCn2nc(-c3cn(C)c4ccccc34)cc21	-5.7%
CCOc1ccccc1N(CC(=O)NCCSc1ccccc1)S(=O)(=O)c1ccccc1	2.0%
Cc1cc(N2CCN(C)CC2)nc2ccc(NC(=O)c3ccc(C(C)(C)C)cc3)cc12	6.56µM*
Cc1ccc(-c2cn3cccc(C)c3n2)cc1NS(=O)(=O)c1ccccc1	-17.2%
O=C(Nc1ccc2oc(-c3cccnc3)nc2c1)c1ccc(-c2ccc(OC(F)(F)F)cc2)o1	-1.9%
Cc1cccc(CSc2cn(CC(=O)N3CCCCC3)c3ccccc23)c1	-19.2%
Cc1cc(=O)n(CC(=O)N2CCCCC2)c2c1c(C)nn2C	-14.3%
Cc1ccc(Cl)cc1NC(=O)/C(C#N)=C\c1cn(Cc2ccc(F)cc2)c2ccccc12	-5.7%
Cc1ccc(S(=O)(=O)N2CCCc3cc(NC(=O)c4ccccc4Cl)ccc32)cc1	-6.5%
CCOC(=O)c1c(C)[nH]c(CCC(=O)NCc2cccc(C)c2)c1C	-2.1%
COc1ccc(OC)c(CNC(=O)CCCn2nc(C)c3c(C)n(-c4ccc(C)cc4)nc3c2=O)c1	10.8%
COc1ccc(Br)cc1Cn1nnc(C(=O)Nc2cccc(SC)c2)c1N	21.1%
CCCOc1ccc(C(=O)Nc2ccc(Cl)c(-c3nc4ncccc4o3)c2)cc1	6.7%
CCCCN(CC)CCNC(=O)C1CCN(c2nnc(C)c3c(C)n(-c4ccc(C)cc4)nc23)CC1	-2.8%
COc1ccc(C(=O)c2c(N)c(C(=O)Nc3ccccc3Cl)c3ccccn23)cc1	1.1%
O=C(CSC1=Nc2ccccc2N=C(c2ccc(F)cc2)C1)NCc1ccc(Cl)cc1	-0.3%
Cc1cccc(-c2nc(CCNC(=O)c3ccco3)cs2)c1	-0.8%
CC(=O)Nc1ccc(NC(=O)C(Cc2ccccc2)N2Cc3ccccc3C2=O)cc1 (stereo not drawn)	-7.0%
COc1ccc(OC)c(NC(=O)CN2CCCN(Cc3cc(C)ccc3C)S2(=O)=O)c1	-1.8%
CCc1ccc(S(=O)(=O)c2cn(Cc3ccccc3)c3cc(F)c(F)cc3c2=O)cc1	-1.5%
CCc1cccc(NC(=O)CSc2ncc3c(n2)-c2ccccc2N(CC)S3(=O)=O)c1	6.1%
Cc1ccc(C)c(N2CCN(C(=O)CCS(=O)(=O)c3cc(Br)cc4c3N(C(=O)C3CC3)CC4)CC2)c1	-0.6%
CCOC(=O)c1c(C)[nH]c(C)c1S(=O)(=O)N1CCC(C(=O)NCc2ccc(F)cc2)CC1	-3.1%
Cc1c(Cl)cccc1NC(=O)CSc1nc(=O)n(Cc2ccncc2)c2c1CCC2	-2.7%
Cc1ccc(CNS(=O)(=O)c2ccc(C(=O)N(C)C)s2)cc1	-3.7%
Cc1ccc(C2CC(=O)n3nc(-c4cccc(C)c4)nc3S2)cc1 (stereo not drawn)	-0.1%
Clc1ccc(CCNc2nc3ccccc3c3nc(-c4ccccc4)nn23)cc1	4.2%
CCCCc1ccc(NC(=O)c2cc(-c3ccc(C)c(F)c3)on2)cc1	20.9%
O=C(NCCCc1ccccc1)C1CCN(C(=O)N2CCOc3ccc(Cl)cc32)CC1	1.1%
COc1cc(OC)c(N(C)C(=O)c2cn(C3CCCC3)c(=O)c3c2c2ccccc2n3C)cc1Cl	?
CN(C1CCCCC1)S(=O)(=O)c1ccc2c(c1)c(=O)c(C(=O)NCCc1ccccc1)cn2C	-3.4%
COc1cc(/C=C2/C(=N)N3C(=NC2=O)SN=C3S(=O)(=O)C(C)C)ccc1OS(=O)(=O)c1ccccc1	-7.8%
COc1ccc(Nc2cc(C(=O)NCCc3ccccc3)c3ccccc3n2)cc1OC	-5.7%
Cc1ccc(CN2C(=O)N(c3ccc(C)c(Cl)c3)S(=O)(=O)c3ccccc32)cc1	24.3%
O=c1c2sccc2n(Cc2cc(=O)n3ccccc3n2)c(=O)n1-c1cc(F)ccc1F	-5.0%
O=c1n(Cc2ccccc2)nc2n1-c1ccccc1OC2	-36.9%
COc1cc(C2CC(=O)Nc3c2c(C)nn3-c2nncc(-c3ccccc3)n2)cc(OC)c1OC (stereo not drawn)	28.9%

# Two consecutive compounds out of the list so far:
SMILES	miR-21 FLuc
O=c1n(Cc2ccccc2)nc2n1-c1ccccc1OC2	-36.9%
COc1cc(C2CC(=O)Nc3c2c(C)nn3-c2nncc(-c3ccccc3)n2)cc(OC)c1OC (stereo not drawn)	28.9%

# The list goes on.
SMILES	miR-21 FLuc
CCOc1ccccc1CNC(=O)c1[nH]c2ccccc2c1Sc1ccccc1	-16.6%
COc1cccc(NC(=O)c2c(-c3ccc(C)cc3)nnc3ccccc23)c1	-69.3%
CC(C)CCn1c(=O)c2cccnc2n(CC(=O)Nc2ccc(F)cc2)c1=O	9.7%
COc1ccc(N2CCN(c3ncnc4onc(-c5ccc(F)cc5)c34)CC2)cc1	10.0%
Cc1cccc(C(=O)NCC(c2cccs2)S(=O)(=O)c2cccs2)c1 (stereo not drawn)	7.4%
Cc1c(C(=O)NCc2ccc(F)cc2)sc2nc(-c3ccc(F)cc3)cn12	8.0%
CC(=O)c1ccc(N2CCN(C(=O)C3CCN(S(=O)(=O)c4cccc5nonc45)CC3)CC2)cc1	12.0%
CCCc1nc2ccccc2n2c(-c3cccc(C)c3)c3c(=O)n(C)c(=O)n(C)c3c12	-13.2%
CCC1CN(C(=O)Nc2cccc3c2CCCC3)c2cc(C)ccc2O1 (stereo not drawn)	-66.1%
CCc1cccc(NS(=O)(=O)c2cc(-c3cnc(C)o3)ccc2OC)c1	-6.6%
COc1ccc(-c2nn(CC(=O)Nc3ccccc3F)c3c2cnc2ccc(F)cc23)cc1	-34.3%
COc1ccc(-c2c3c(=O)n(C)c(=O)n(C)c3cn2-c2cccc(N)c2)cc1	-32.8%
COc1cccc(-n2cc(C(=O)NCCc3ccc(C)cc3)c3ccccc3c2=O)c1	-0.8%
CCc1cccc(NC(=O)C2CCN(S(=O)(=O)c3ccc(Br)s3)CC2)c1	20.5%
CCc1ccccc1NC(=O)C(=O)NCC(c1cccnc1)N1CCN(c2ccccc2F)CC1 (stereo not drawn)	3.5%
O=S(=O)(c1ccccc1)c1nc(-c2cccs2)oc1N1CCCCC1	0.6%
COc1cc(NC(=O)CCc2c(C)n(C)c3cc(-c4ccccc4C)nn3c2=O)cc(OC)c1OC	-4.2%
CCOc1ccc(-n2nc3ccc(NC(=O)c4ccc(-c5cccc(Cl)c5)o4)cc3n2)cc1	6.9%
CCOc1ccc(C(=O)c2cn(CC(=O)Nc3cc(OC)ccc3OC)c3cc(OC)c(OC)cc3c2=O)cc1	-11.0%
O=C(COc1ccc(F)cc1)Nc1ccc(S(=O)(=O)N(Cc2ccccc2)c2ccccc2)cc1	-2.0%
CCn1c(C(=O)NCc2cc(Br)ccc2OC)cc2oc3ccccc3c21	13.6%
CCOc1c(Cl)cc(C(=O)N(Cc2ccc(N(C)C)cc2)Cc2ccco2)cc1Cl	7.2%
CCc1ccc(NC(=O)N2CCC(N3CCN(Cc4ccc(C)cc4)C(=O)C3=O)CC2)cc1	1.3%
CCOc1ccccc1C(=O)N(Cc1ccco1)Cc1ccccc1F	16.3%
Cc1ccc(N2CCN(C(=O)c3cnn(-c4ccc(C)c(C)c4)c3C3CCNCC3)CC2)c(C)c1	?
COc1ccc(N(C(=O)c2ccccc2C)S(=O)(=O)c2ccc(Cl)cc2)cc1	28.9%
CCOc1ccccc1CNS(=O)(=O)c1cnc(N)nc1	2.1%
O=c1c2ccccc2n(Cc2cccc(Cl)c2)c(=O)n1Cc1ccccc1	1.0%
O=C(Cn1nc2c(cc1=O)CCCC2)NCc1ccccc1	-29.2%
CCCN(CCC)C(=O)C1CCN(c2cc(C)nc3c(-c4ccc(Cl)cc4)c(C)nn23)CC1	5.7%
Cc1ccc(C(=O)c2c(N)c(C(=O)Nc3cccc(C(F)(F)F)c3)c3ccccn23)cc1	-10.9%

# Screening results as filed in PubChem.
